# High-throughput results deposited in PubChem by National Center for Advancing Translational Sciences (NCATS).
# PINK1 modulator = PINK1 expression modulation; Potency, µM (top dose mostly 76.6 µM), without a hit: top-dose activation (PINK1 increase), actives largely listed as activators; 410,000 tested, 0.2% active; PINK1 immunofluorescence, high-content cytometry, 24 h; active = well fitted activation curve with a large enough effect; inconclusive = small, poorly fitted or top-dose-only effect; inactive = flat fitted curve, though single readings scatter; cell line not stated here;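 also: potency is read from the fitted curve at half-maximal effect; % of control where 0% means no effect; nearly all actives have a fitted effect of over 65% in size; a mitochondrial uncoupler was the plate control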
#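 A stable cell line was treated with compounds at 5 concentrations for 24 hours, with CCCP as control. PINK1 levels and mitochondrial localization were measured by immunofluorescence with mitochondrial, cell and nuclear markers after fixation, read by laser-scanning cytometry.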
# TRPML1 agonist = agonists of human TRPML1 channel; Q9GZU1; TRPML1-expressing cells, Ca2+ dye fluorescence, FDSS; host cell line not named in the record; reference of the full effect not given here; activation, % (test concentration not listed); 410,000 tested, 0.12% active; AID 624414; in the data active = activation above about 50%; inconclusive = about 30% to 50%; inactive = below about 30%; also: 0% is about no effect; the text of the record puts the active cut at 80%
#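 Tetracycline-induced TRPML1-DL cells are seeded and incubated overnight before loading with a no-wash Ca2+ dye and quencher. Agonist activity is taken from the 110 s fluorescence read following compound pin-transfer on an FDSS, before EC80 54-4 challenge.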
# D2 agonist = agonists of human D2 dopamine receptor (beta-arrestin); P14416; DiscoveRx PathHunter D2 beta-arrestin, luminescence, 90 min; 100% = 57 uM dopamine signal; activation, % (concentration not given with the values); 360,000 tested, 0.084% active; in the data active = activation above about 40%; inconclusive = about 15% to 40%; inactive = below about 15%; also: compound concentration not given in the record; the text of the record calls up to 30% inactive
#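 Agonist mode: compounds alone added to overnight-plated D2 PathHunter cells for 90 min at 37 C, with 57 uM final dopamine (EC100) defining full response. Beta-arrestin recruitment detected by chemiluminescent reagent, read after 1 h at ambient temperature.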
# D2 PAM = human D2 receptor positive allosteric modulation; DiscoveRx D2 beta-arrestin cells, luminescence, 90 min; 100% = 57 uM dopamine signal; potentiation, % (no concentration beside the values); 360,000 tested, 0.23% active; AID 624464; active = potentiation of 50% or more; inconclusive = 30% to 50%; inactive = 30% or less;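 also: compound concentration not given in the record; tested on top of an EC20 dose of dopamine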
#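 PathHunter D2 cells, attached overnight at 37 deg C, received compound in DMSO plus dopamine at EC20 (50 nM final) for 90 min at 37 deg C. Beta-arrestin recruitment was read as luminescence after 1 h with detection reagent at ambient temperature.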
# TRPML1 blocker = human mucolipin-1 channel inhibition | Q9GZU1 | TRPML1-inducible cells, Ca2+ dye fluorescence, FDSS; stronger effect = lower value; inhibition of EC80 agonist-evoked calcium signal | activity change, negative = inhibition, % (concentration not given with the values) | 390,000 tested, 0.02% active | AID 624415; in the data active means activity change below about -50%; inconclusive means about -30% to -50%; inactive means above about -30%;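 also: stimulus is agonist 54-4 at its EC80 concentration; % is scaled to controls: 0 for no effect and ±100 for the full control effect; compound concentration not given in the record; the text of the record puts the active cut at -80%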
#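 Tet-induced TRPML1-DL cells loaded with Ca8 no-wash calcium dye were read kinetically on FDSS. Compound addition was followed by EC80 agonist 54-4 (4 uM final); inhibition was read over 110 s.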
# Six1-Eya2 inh = Six1/Eya2 interaction inhibition | AID 651725 | Q15475+O00167 | activity change, % (concentration not given with the values) | AlphaScreen GST-Six1/His-Eya2 binding, biochemical; stronger effect = lower value; control for the full effect not named in the record | 360,000 tested, 0.56% active; in the data active = activity change below about -65%; inconclusive = about -30% to -65%; inactive = above about -30%; also: % is scaled to controls: 0 for no effect and ±100 for the full control effect
# Target sequence (O00167 whole entry, looked up): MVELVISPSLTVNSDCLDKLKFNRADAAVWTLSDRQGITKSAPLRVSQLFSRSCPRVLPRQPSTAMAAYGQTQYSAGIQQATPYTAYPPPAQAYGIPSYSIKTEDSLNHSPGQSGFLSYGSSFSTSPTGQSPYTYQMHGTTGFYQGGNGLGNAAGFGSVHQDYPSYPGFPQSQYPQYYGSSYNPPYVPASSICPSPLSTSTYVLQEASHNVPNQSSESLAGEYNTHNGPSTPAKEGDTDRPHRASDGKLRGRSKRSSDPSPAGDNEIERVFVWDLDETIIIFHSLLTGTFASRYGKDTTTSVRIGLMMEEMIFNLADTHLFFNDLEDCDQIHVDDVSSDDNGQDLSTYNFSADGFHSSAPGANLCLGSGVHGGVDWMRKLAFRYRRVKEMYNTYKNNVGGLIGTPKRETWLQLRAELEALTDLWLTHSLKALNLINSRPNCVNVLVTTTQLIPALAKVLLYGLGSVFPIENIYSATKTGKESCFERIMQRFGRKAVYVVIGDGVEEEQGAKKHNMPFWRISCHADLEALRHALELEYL
# Target sequence (Q15475 whole entry, looked up): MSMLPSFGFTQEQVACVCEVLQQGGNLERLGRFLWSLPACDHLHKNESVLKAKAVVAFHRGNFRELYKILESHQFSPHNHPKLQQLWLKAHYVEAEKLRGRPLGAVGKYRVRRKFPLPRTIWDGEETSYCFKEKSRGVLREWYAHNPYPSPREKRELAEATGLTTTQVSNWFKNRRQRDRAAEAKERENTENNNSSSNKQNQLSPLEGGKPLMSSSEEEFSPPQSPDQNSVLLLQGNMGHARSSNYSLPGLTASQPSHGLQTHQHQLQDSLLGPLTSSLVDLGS
#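 GST-Six1 + His-Eya2 (5X stock: 250/500 nM); Tris pH 8.0, 300 mM NaCl, 0.05% BSA, 0.02% Tween 20; GSH donor/Ni acceptor beads; 1 h 37 °C dark; AlphaScreen readout.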
# Numbers without * were called inactive; ? = inconclusive; nt = not tested or not shown; & = joins results of further samples; [ ] = remark or other dose.
SMILES,PINK1 modulator,TRPML1 agonist,D2 agonist,D2 PAM,TRPML1 blocker,Six1-Eya2 inh
CC1CCCC(C)N1CCCNC(=O)CCn1c(=O)c2cccn2c2cccnc21 (stereo unspecified),0.8%,-0.9,-2.9,-15,-15,0
O=C(Nc1ccccc1)c1nnsc1S(=O)c1ccc(Cl)cc1 (stereo unspecified),-3.7%,8.3,-1.4,-17,9,-1
COc1cccc(/C=N/NC(=O)c2ccc(CN3c4cccc5cccc(c45)S3(=O)=O)cc2)c1,0.5%,0.1,-6.8,2,4,5
COc1cc(CC(=O)N2CCN(S(=O)(=O)c3ccc(C)cc3)CC2)cc(OC)c1OC,0.4%,-0.1,7.7,12,1,-1
O=C(CN1C(=O)C2CCCCC2C1=O)OCC(=O)c1ccc(F)cc1 (stereo unspecified),-0.9%,-0.2,-6.4,-5,-8,5
COc1cc(OC)c(NC(=O)N2CCCn3nc(C)cc32)cc1Cl,2.2%,-0.6,nt,nt,-20,nt
CCc1nc2ccc(C(=O)NCCCn3ccnc3)cn2c1N(C)Cc1nccs1,0.2%,-0.5,-0.8,-6,nt,1
Cc1ccccc1-c1nc(-c2ccc(NC(=O)c3cccs3)cc2)no1,3.1%,1.5,2.0,?,5,3
COc1ccccc1/C=C/C=C(\C#N)C(=O)NC(C)c1ccccc1 (stereo unspecified),7.2%,2.3,-3.6,-19,16,1
CC1CCC2(CC1)NC(=O)N(CC(=O)N1CCN(S(=O)(=O)c3ccc4c(c3)CCC4)CC1)C2=O (stereo unspecified),13%,-0.4,-5.7,-16,-24,7
Cc1cc(C)c(C#N)c(N)n1,0.1%,-0.4,-6.3,-3,-13,3
c1nc(NC2CCCC2)c2[nH]cnc2n1,0.4%&-0.4%,-0.7&-0.3,-2.9,-3,2,3
Brc1cccc(-c2nc3c4ccccc4ccn3c2CC2CCCCC2)c1,0.5%,0.3,nt,nt,nt,4
COc1ccc2c(c1)c1nnc(SC)nc1n2C,4.8%,-0.6,-0.1,4,-9,-16
Cc1ccc(C)c(N=C2CCCN2Cc2ccccc2)c1C#N,1.2%[38.3 µM],1.3,-1.6,-10,51,18
O=S(=O)(Nc1ccc2nc(N3CCOCC3)sc2c1)c1ccc(Cl)cc1,0.4%,-0.6,-1.8,1,12,-7
O=C(NCc1cccc(F)c1)C1CCC(=O)N(CCCN2CCOCC2)C1 (stereo unspecified),0.8%,-0.3,-3.0,-29,7,4
CCN1CCC2(CCN(C(=O)c3cc(COc4cc(C)ccc4C)on3)C2)C1 (stereo unspecified),1.3%,-0.4,-1.2,-8,-8,-2
CCN1C(=O)C2CCCCN2c2ccc(C(=O)NCCOC)cc21 (stereo unspecified),1.0%,0.8,-0.7,-5,-9,-3
COc1ccc(C(C(=O)Nc2ccc(F)cc2)N(C(=O)Cn2nnc3ccccc32)C2CC2)cc1 (stereo unspecified),?,1.2,-1.7,-30,12,-2
CCOC(=O)c1cc(-c2ccc(Cl)s2)[nH]n1,4.5%,-1.3,-1.2,-13,1,6
COc1ccccc1NC(=O)c1ccc(-c2nc(COc3ccc(C)cc3)c(C)o2)cc1,2.2%,3.0,nt,nt,-16,nt
COc1ccc(NC(=O)Cn2nnc(C(=O)Nc3ccc(F)c(Cl)c3)c2N)cc1OC,?,0.0&1.1,-9.6,-12,-1&36,-9
CCN(CC)S(=O)(=O)c1ccc(N2CCOCC2)c(NC(=O)c2cccc3ccccc23)c1,6.7%,-0.2,3.0,-1,-13,-7
C#CCNC(=O)C[C@@H]1C[C@@]2(C(=O)OCC)CCCC=C2N(Cc2ccc(Cl)cc2Cl)C1=O,0.5%,-0.5,nt,nt,nt,-1
COc1ccc(N2CCN(C(=O)CN3C(=O)c4ccccc4S3(=O)=O)CC2)cc1,-1.7%,-0.8,-3.2,-9,3,-6
COc1cc(S(=O)(=O)Nc2cccnc2)ccc1Cl,2.3%,-0.4,-4.3,-10,14,-2
CN(C)c1ccc(/C=C/c2nc3ccccc3c(=O)n2-c2ccc(C(=O)O)cc2)cc1,0.3%,64*,?,18,19,4
CCCn1c(SCC(=O)NC)nc2sc3c(c2c1=O)CCC3,-0.1%,-0.5,-2.0,2,-3,-2
C=CCC[C@@H](CCCCC)OC(=O)/C=C/[C@@H](O)[C@H](O)C[C@H](O)CC=C,5.5%,0.3,nt,nt,nt,13
c1cn2cc(CSC3CCCCC3)nc2s1,3.2%,-0.1,-2.8,-14,-3,-8
CCOC(=O)C1=C(CN2CCC(C)CC2)NC(=O)NC1c1ccc(F)cc1 (stereo unspecified),1.3%,2.1,nt,nt,-6,nt
CCOC(=O)CCCCCC(=O)Nc1ccc2c(c1)C(=O)N([C@H](C)CO)C[C@H](C)[C@@H](CN(C)S(C)(=O)=O)OCCCC[C@@H](C)O2,-0.5%,-0.7,-2.2,4,22,2
O=C(CSCc1c(F)cccc1Cl)NCc1cccnc1,2.6%,-0.8,-4.6,3,-4,0
C[C@H](CO)N1C[C@H](C)[C@@H](CN(C)S(=O)(=O)c2ccc(Cl)cc2)Oc2ccc(NS(=O)(=O)c3ccccc3)cc2CC1=O,1.5%,1.5,-1.6,-1,-18,28
CSc1ncc(CN2CCCCC2C(=O)Nc2ccc(Oc3ccccc3)nc2)cn1 (stereo unspecified),1.2%,0.0,0.4,-6,11,-27
COCCN1C(=S)NC(c2cccc(C(F)(F)F)c2)C(C(=O)N2CCOCC2)=C1C (stereo unspecified),1.4%,-0.6,-2.2,-7,4,1
O=C(COc1ccccc1)NNC(=S)NC(=O)c1ccccc1,3.0%,0.7,11,18,-6,3
CC(C)N(c1ccccc1)c1ccc(NC(=O)COC(=O)CCN2C(=O)c3cccc([N+](=O)[O-])c3C2=O)cc1,-2.8%,1.2,?,61*,14,-28
CCOc1ccc2c(c1)OC(c1ccc(OC)cc1)(C(F)(F)F)NC2=O (stereo unspecified),?,0.2,-4.1,13,17,-5
CCOc1ccc(NC(=O)Cn2ccn(-c3ccc(F)c(F)c3)c(=O)c2=O)cc1,1.0%,-0.4,nt,nt,22,nt
CC(C)OC(=O)c1ccc(COc2ccc3ccc(=O)oc3c2)o1,0.2%,2.6,3.1,1,-11,4
Cc1cc(C)cc(C(=O)NC(CC(N)=O)c2ccc(N3CCC(Cc4ccccc4)CC3)c([N+](=O)[O-])c2)c1 (stereo unspecified),-0.5%,0.0,-1.2,-23,1,-3
O=C1CN(c2cc(Cl)cc(Cl)c2)C(=O)CN1/N=C/c1cccnc1,0.7%,0.7,0.5,-3,-2,-8
Cc1cc2c(c(SCC(=O)N(C)c3ccccc3)n1)C(=O)OC2,-0.2%,0.9,-0.5,-23,-18,1
Cc1ccc(S(=O)(=O)N/N=C/c2ccc(OCC(=O)N3CCOCC3)cc2)cc1,-0.4%,2.8,6.0,1,-2,0
COC(=O)c1nnn(-c2ccc(Cl)c(Cl)c2)c1C(=O)OC,3.4%,1.1,1.2,5,-13,19
O=C(CN1CCN(c2ccc(F)cc2)CC1)N(C1CCCC1)C1CCS(=O)(=O)C1 (stereo unspecified),-0.2%,1.0,-9.9,-2,7,-5
Cc1ccnc(NS(=O)(=O)c2ccc(NC(=O)C3CC=CCC3C(=O)O)cc2)n1 (stereo unspecified),1.4%,0.4,-2.7,-3,49,15
COc1cc(C(=O)NCc2nnc(SCC(=O)N3CCCc4ccccc43)o2)cc(OC)c1OC,2.1%,2.1,3.3,-5,12,-4
Cc1cc(NC(=O)/C=C/c2ccccc2)no1,-5.4%[38.3 µM],-0.5,1.4,-16,8,5
CCOC(=O)c1ccccc1NC(=O)c1cn(CC)c2nc(C)ccc2c1=O,0.9%,nt,-3.1,-4,nt,5
CN1CC(=O)N(CC(=O)Nc2ccc(Br)cc2F)C1=O,0.0%,-0.3,0.1,1,2,-1
COc1ccc(C(=O)Nc2ccc3nc(SCC(=O)N4CCCC4)sc3c2)cc1,5.0%,1.7,nt,nt,-14,nt
CCOc1ccc(-c2c(C#N)c(N)nc3sc(C(=O)c4ccccc4)c(N)c23)cc1,19%,0.7,-3.7,-11,-4,5
O=C(c1cnccn1)N(c1ccccc1)C1(C(=O)NC2CCCCC2)CCCCC1,-0.1%,-0.8,-1.6,-14,11,4
Cc1cccc(N2CN(Cc3cccnc3)CNC2=S)c1,1.9%,0.1,-3.4,-4,-9,-1
COc1cccc(NC(=S)N(CCCN2CCN(C)CC2)Cc2ccco2)c1,0.2%,0.0,-7.6,-23,0,0
CCOC(=O)C1CCN(S(=O)(=O)c2ccc(C)cc2)CC1,nt,0.1,1.9,8,7,9
CCOC(=O)CN1C(=O)CN(c2ccc(C)cc2)C1=O,0.8%,1.7,4.6,-12,38,1

# Remaining list, next part
SMILES,PINK1 modulator,TRPML1 agonist,D2 agonist,D2 PAM,TRPML1 blocker,Six1-Eya2 inh
COc1ccc(N2CCN(C(=O)CN(C)S(=O)(=O)c3cnc[nH]3)CC2)cc1,-1.8%,0.1,-6.2,-3,-5,2
CCOc1ccc(NC(=O)CN(c2ccc(OC)cc2)S(=O)(=O)c2cccs2)cc1,6.7%,4.4,3.8,-2,-25,-1
CNC(=O)C[C@H]1C(=O)N(C2CCCCC2)C[C@@H]1C,-1.8%,1.0,1.5,0,1,17
COc1ccc(-c2ccc(C#N)c(SCC(=O)Nc3sc4c(c3C#N)CCC4)n2)cc1,1.3%,2.8,-1.4,18,-7,8

# Some of these compounds in order of SMILES length, high to low.
SMILES,PINK1 modulator,TRPML1 agonist,D2 agonist,D2 PAM,TRPML1 blocker,Six1-Eya2 inh
COc1ccc(-c2ccc(C#N)c(SCC(=O)Nc3sc4c(c3C#N)CCC4)n2)cc1,1.3%,2.8,-1.4,18,-7,8
COc1ccc(N2CCN(C(=O)CN(C)S(=O)(=O)c3cnc[nH]3)CC2)cc1,-1.8%,0.1,-6.2,-3,-5,2
O=C(c1cnccn1)N(c1ccccc1)C1(C(=O)NC2CCCCC2)CCCCC1,-0.1%,-0.8,-1.6,-14,11,4
COc1ccc(C(=O)Nc2ccc3nc(SCC(=O)N4CCCC4)sc3c2)cc1,5.0%,1.7,nt,nt,-14,nt
CCOC(=O)c1ccccc1NC(=O)c1cn(CC)c2nc(C)ccc2c1=O,0.9%,nt,-3.1,-4,nt,5
COc1cccc(NC(=S)N(CCCN2CCN(C)CC2)Cc2ccco2)c1,0.2%,0.0,-7.6,-23,0,0
CCOC(=O)C1CCN(S(=O)(=O)c2ccc(C)cc2)CC1,nt,0.1,1.9,8,7,9
CN1CC(=O)N(CC(=O)Nc2ccc(Br)cc2F)C1=O,0.0%,-0.3,0.1,1,2,-1
CCOC(=O)CN1C(=O)CN(c2ccc(C)cc2)C1=O,0.8%,1.7,4.6,-12,38,1
Cc1cccc(N2CN(Cc3cccnc3)CNC2=S)c1,1.9%,0.1,-3.4,-4,-9,-1
